# NS1 function inh: inhibitors of influenza NS1 protein function. S. cerevisiae slowed by influenza A NS1, growth recovery by OD600. Potency, µM (top dose mostly 46.1 µM), for the others: at the top dose activity, positive = more growth. actives 0.4% (n = 270,000). AID 2326; note: actives are rising curves; nearly all actives have a fitted effect of over 50% in size
#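 A cell-based growth assay was used: compounds that relieve NS1-induced slow growth of budding yeast raise OD600. Assay medium was yeast nitrogen base with ammonium sulphate and -URA supplement, pH 6.0, with 2% galactose.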
# Lassa entry inh: Lassa virus entry inhibition | Lassa virus pseudotype entry inhibition, cell reporter; control for the full effect not named in the record | Potency, µM (top dose mostly 37.9 µM), for inactives: at the top dose activity change, negative = inhibition, hits mostly inhibitors | actives 1.2% (n = 300,000); active means well fitted inhibition curve with a large enough effect; inconclusive means small, poorly fitted or top-dose-only effect, or effect the other way; inactive means flat fitted curve, though single readings scatter; tested in HEK293 cells; note: % is set by controls: 0 for no effect and ±100 for the full control effect; nearly all actives have a fitted effect of over 50% in size; luciferase read-out
# Cruzain inh noDet: inhibitors of Trypanosoma cruzi cruzain without detergent; actives 2.3% (n = 200,000); purified cruzain, Z-FR-AMC fluorescence, no detergent; Potency, µM, inactives show max response, negative = inhibition, hits mostly inhibitors; AID 1476; P25779; active = well fitted curve in the direction sought with a large enough effect; inconclusive = small, poorly fitted or top-dose-only effect, or another doubt; inactive = no such curve, though single readings can be large; an effect the other way counts as inactive or inconclusive;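 note: plate controls were enzyme without inhibitor for no effect and buffer without enzyme for full effect; nearly all actives have a fitted effect of over 40% in size; top concentration of the series not given in the record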
# Target sequence (P25779 123-467 limits assumed): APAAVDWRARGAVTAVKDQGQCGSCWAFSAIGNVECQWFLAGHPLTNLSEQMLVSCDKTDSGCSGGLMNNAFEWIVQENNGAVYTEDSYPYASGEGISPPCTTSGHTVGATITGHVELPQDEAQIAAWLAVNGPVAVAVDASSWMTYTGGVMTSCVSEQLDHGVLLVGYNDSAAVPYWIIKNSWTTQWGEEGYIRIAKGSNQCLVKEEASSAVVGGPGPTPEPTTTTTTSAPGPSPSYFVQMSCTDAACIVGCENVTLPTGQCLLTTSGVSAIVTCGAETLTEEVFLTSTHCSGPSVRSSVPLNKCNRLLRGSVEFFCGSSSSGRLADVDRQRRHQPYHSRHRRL
#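 Purified cruzain at 1.5 nM, pre-incubated 15 min with compound at room temperature in 100 mM sodium acetate pH 5.5, 5 mM DTT, 0.00005% Triton X-100. Reaction started with 2 uM Z-FR-AMC; AMC fluorescence increase over 60 s gives rate.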
# RE007 growth inh: less growth of the S. pombe RE007 Vpr strain. S. pombe RE007 Vpr strain, BacTiter-Glo ATP luminescence, 24 h; control for the full effect not named in the record. Potency, µM (highest dose often 92.2 µM), without a hit: at the highest dose activity change, negative = less growth. actives 0.21% (n = 360,000); active = well fitted falling curve with a large enough effect; inconclusive = small, poorly fitted or top-dose-only effect; inactive = no such curve, though single readings can be large or run the other way;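 note: % is set by controls: 0 for no effect and ±100 for the full control effect; nearly all actives have a fitted effect of over 50% in size; the assay follows cell death caused by Vpr and the record does not say whether a fall means rescue or toxicity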
#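 Fission yeast strain RE007, carrying one chromosomally integrated HIV-1 vpr copy, was seeded at OD 0.01 in PMG+AL medium with 23 nL pinned compound. After 24 h at 30 °C and 99% humidity, viability was read by BacTiter-Glo luminescence.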
# Cruzain Triton: cruzain (T. cruzi) inhibition with detergent | P25779 | purified cruzain, Z-FR-AMC fluorescence, 0.01% Triton | Potency, µM, without a hit: max response, negative = inhibition, actives largely listed as inhibitors | actives 0.43% (n = 200,000); active = well fitted curve in the direction sought with a large enough effect; inconclusive = small, poorly fitted or top-dose-only effect, or another doubt; inactive = no such curve, though single readings can be large; an effect the other way counts as inactive or inconclusive;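 note: plate controls were neutral wells for no effect and buffer without enzyme for full effect; nearly all actives have a fitted effect of over 40% in size; top concentration of the series not given in the record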
#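 Purified cruzain (1.5 nM final) was preincubated with compounds for 15 min at room temperature in 100 mM sodium acetate pH 5.5, 5 mM DTT, 0.01% Triton X-100. Reaction started with 2 uM Z-FR-AMC; AMC fluorescence change over 60 s gave activity.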
# Marburg entry inh: blocks Marburg virus binding to or entry into cells. Marburg virus pseudotyped entry inhibition, cell reporter; control for the full effect not named in the record; about a third of the inactives were read at about 46 µM. actives 1.8% (n = 300,000). Potency, µM (top dose mostly 37.8 µM), inactives show at the highest dose activity change, negative = inhibition, most hits filed as inhibitors; active = well fitted inhibition curve with a large enough effect; inconclusive = small, poorly fitted or top-dose-only effect, or effect the other way; inactive = flat fitted curve, though single readings scatter; tested in HEK293 cells; about a fifth of its hits are not listed in these tables; note: % is set by controls: 0 for no effect and ±100 for the full control effect; luciferase read-out
# SARS PLpro yeast: inhibitors of SARS-CoV papain-like protease in yeast. S. cerevisiae expressing SARS-CoV PLpro, growth rescue; control for the full effect not named in the record. Potency, µM (highest dose often 32.9 µM), for inactives: at the highest dose activity, positive = growth rescue. actives 0.19% (n = 330,000). AID 485353; note: 0% is about no effect; nearly all actives have a fitted effect of over 55% in size; growth read by luminescence after 48 h
# StopGo reporter: lowers the luciferase signal of an FMDV 2A StopGo reporter; human cells with a luciferase reporter of 2A StopGo recoding; control for the full effect not named in the record; Potency, µM (top dose mostly 57.9 µM), for inactives: at the top dose signal change, negative = less light; actives 1.2% (n = 410,000); AID 1159524; active = well fitted falling curve with a large enough effect; inconclusive = small, poorly fitted or top-dose-only effect; inactive = no such curve, though single readings can be large or run the other way; tested in HEK293T cells; note: % is set by controls: 0 for no effect and ±100 for the full control effect; nearly all actives have a fitted effect of over 45% in size; luciferase light after 4 h
# An asterisk follows results filed as active; ? = inconclusive; . = no result given; & = joins results of further samples; [ ] = another dose, or the depositor's remark. Unless noted, calls come from the whole dose curve; as a rule, active means well fitted rising curve with a large enough effect; inconclusive means small, poorly fitted or top-dose-only effect; inactive means no such curve, though single readings can be large or run the other way. Potency is the fitted concentration of half-maximal effect.
SMILES,NS1 function inh,Lassa entry inh,Cruzain inh noDet,RE007 growth inh,Cruzain Triton,Marburg entry inh,SARS PLpro yeast,StopGo reporter
CCN(CCn1cccn1)C(=O)c1cc(COc2c(F)cccc2F)on1,-2.8%,-19.1%[46.1 µM],.,-5.6%,.,?,14.3%,7.4%
CCC(C)NC(=O)Cn1cnc2sc(C)c(S(=O)(=O)N3CCN(c4ccccc4OC)CC3)c2c1=O (centres undefined),22.8%,-1.3%&18.1%[46.1 µM],-4.9%,19.2%,-0.4%,-19.4%&0.8%[46.1 µM],-1.4%,-21.9%&-17.7%
COc1cc(CN2CCN(Cc3ccc(C)cc3)C(CCO)C2)cc(OC)c1O (centres undefined),5.3%,?,.,-5.8%,.,?,-0.3%,-17.0%
Cc1ccc(-n2c([O-])nc(-[n+]3ccccc3)c2C=O)cc1,?,19.4%,-1.6%,11.5%,-1.1%,-0.4%,5.0%,.
CCOC(=O)CCCNC(=O)CCCNC(=O)C(c1ccccc1)c1ccccc1,-12.1%,10.7%,-12.4%,15.4%,8.3%,0.1%,-3.7%,19.2%
N#C/C(=C\c1ccc(OCc2ccccc2)cc1)C(N)=O,.,8.5%,.,1.0%,.,14.3%[46.1 µM],-8.6%,17.0%
O=C(O)C1C2c3ccccc3C(=O)C1(C(=O)O)c1ccccc12 (centres undefined),.,15.6%,.,-18.0%,.,-0.9%,.,-10.2%
CCC1CCCN1Cn1cnc2c([nH]c3ccc(Cl)cc32)c1=O (centres undefined),0.1%,27.7%,-8.9%,4.6%,-6.6%,?,10.8%,-15.2%
C=CCC1CCCC(=O)N2CC[C@H](O)C12 (some centres undefined),16.2%,16.7%,-0.9%&1.8%,-16.8%,2.3%&2.1%,-1.0%,6.0%,-8.2%
CC1(c2ccc(OC(F)F)cc2)NC(=O)N(CC(=O)c2ccc3c(c2)OCO3)C1=O (centres undefined),.,8.7%,.,-0.8%,.,-21.8%[46.1 µM],.,-19.6%
O=C(c1ccc(Cl)cc1)c1c[nH]c(C(=O)C(Cl)(Cl)Cl)c1,2.3%,?,0.7%,-12.8%,-0.6%,13.5%,14.0%,0.0%
COc1ccc(CCNC(=O)Nc2ccc(F)cc2F)cc1OC,5.5%,.,.,10.9%,.,.,-0.9%,-21.8%
CC(C)(C#N)NC(=O)C(=O)c1c(-c2ccccc2)cc2ccccn12,-4.5%,.,.,3.2%,.,.,-0.8%,-18.3%
CC1Cc2ccccc2N1CC(=O)Nc1ccc2c(c1)OCO2 (centres undefined),-7.9%,4.3%,-6.0%,-18.3%,-1.3%,?,-3.2%,-6.3%
c1ccc(Nc2cccc3c(Nc4ccccc4)cccc23)cc1,-3.8%,-11.9%[46.1 µM],.,-6.9%,.,-17.0%[46.1 µM],-3.4%,0.0%
N#Cc1cccc(NC(=O)COC(=O)CCc2nc3ccccc3c(=O)[nH]2)c1,.,12.2%,.,-1.2%,.,-11.8%[46.1 µM],0.3%,3.0%
Cc1ccc(CSC2=CS(=O)(=O)c3ccccc3N2)cc1,1.2%,-4.0%,-6.2%,11.6%,-5.4%,-3.0%,-25.4%,-19.3%
O=C(NCCCN1CCOCC1)C(C(=O)NCCCN1CCOCC1)c1ncc(C(F)(F)F)cc1Cl,-3.3%,.,.,3.6%,.,.,0.2%,-7.5%
CCOc1cc2c(cc1OCC)C(C(=O)O)C(c1cc(Br)c(O)c(OC)c1)N(C)C2=O (centres undefined),9.7%,17.3%,-6.8%,-0.5%,3.6%,3.2%,0.2%,-15.7%
Cn1nc(N)c2c(-c3ccc(Cl)cc3)c(C#N)c(N)nc21,-5.5%,0.1%,-8.3%,-4.4%,-3.4%,-10.0%,14.3%,-6.8%
O=C1N(Cc2ccc(F)cc2)CCN1c1ccc(F)cc1,-5.8%,-0.7%[46.1 µM],.,3.1%,.,4.3%[46.1 µM],-1.5%,-7.5%
COC(=O)CN1C(=S)N(c2ccc(Cl)cc2)C(=O)C1CC(=O)Nc1ccccc1 (centres undefined),8.6%,2.5%,15.7%,21.3%,-3.9%,-1.9%,17.2%,-3.1%
Cc1cc(C)cc(NC(=O)Cn2c(-c3ccccc3Cl)nc3ccccc32)c1,7.5%,?,?,11.5%,-4.0%,?,-0.4%,-13.4%
N#C/C(=C\c1cccnc1)c1nc2c(s1)CCCC2,-7.8%,?,.,-12.5%,.,?,-6.1%,39.3%[activator]
Cc1ccc(N(C)S(=O)(=O)c2c[nH]c3ccc([N+](=O)[O-])cc23)cc1,5.3%,.,.,-6.8%,.,.,0.1%,16.9%
Cc1nc2ccccc2n1CSc1ccccc1,-8.1%,20.1%,-4.9%,-3.7%,-2.0%,?,3.2%,-27.4%
N=c1sccn1CC(=O)Nc1ccccc1Cc1ccccc1,5.6%,18.5%,6.9%,1.7%,0.2%,?,-4.7%,-8.4%
Cc1ccc(S(=O)(=O)N(Cc2cc3cc4c(cc3[nH]c2=O)OCCO4)CC2CCCO2)cc1 (centres undefined),0.5%,-23.1%,-5.5%,-5.0%,2.9%,?,-9.1%,18.3%
CCOc1ccccc1NC(=O)CCNC(=O)c1ccc(Cl)cc1,.,-2.5%,.,9.7%,.,15.0%[46.1 µM],-0.9%,-2.4%
COc1cccc(-c2ccc3c(N)c(C(=O)NC4CC4)sc3n2)c1,-11.3%,?,.,9.3%,.,?,-1.4%,35.7%[activator]
CC[C@@]1(c2ccccc2)C(=O)N(C(=O)OC)N1C(=O)OC,18.1%,.,.,14.2%,.,.,4.0%,0.0%
COc1cccc(/C=N/Nc2nc(Nc3ccc([N+](=O)[O-])cc3)nc(N3CCCC3)n2)c1O,.,?,.,0.2%,.,2µM*,?,-7.1%
CCOC(=O)C1=C(CN2CCOCC2)NC(=O)NC1c1cc(C)ccc1C (centres undefined),-3.6%,-15.4%,5.7%,3.1%,-4.0%,-14.9%,7.7%,.
CN(Cc1ccccc1)c1nc2nonc2nc1N1CCCC(CN2CCCC2=O)C1 (centres undefined),-2.6%,.,.,-12.9%,.,.,5.1%,-11.1%
COC(=O)Cn1cnc2c(cnn2-c2ccc(OC)cc2)c1=O,13.3%,11.6%[46.1 µM],.,-5.4%,.,8.5%[46.1 µM],6.3%,16.9%
COC(c1ccccc1)c1nnc(CCC(=O)N(C)CCc2ccccc2)o1 (centres undefined),-1.7%,-9.9%[46.1 µM],.,5.4%,.,-9.2%[46.1 µM],-0.9%,-2.3%
Cc1ccccc1NC(=O)c1sc2nc(N3CCOCC3)c3c(c2c1N)CCCC3,16.1%,.,.,-3.4%,.,.,0.2%,30.5%[activator]
CC1CCN(C(=O)c2ccccc2SCC(=O)NCC2CCCCC2)CC1,.,4.3%,.,3.1%,.,-26.1%,-0.2%,-18.7%
O=C(CN1C(=O)CCc2cc(S(=O)(=O)N3CCOCC3)ccc21)NCc1ccc(Cl)cc1,.,16.4%[46.1 µM],1.2%,.,2.0%,.,.,-13.6%
CC(C)N(C(=O)COC(=O)c1cccc(N(C)C)c1)c1ccccc1,-14.3%,-10.1%,.,0.0%,.,-12.8%[46.1 µM],-4.0%,10.6%
Cc1nc2ccccc2c2c1C(=O)N(C)C2=O,0.9%,1.6%,1.6%,0.1%,-8.6%,?,0.1%,.
CC(C)CC(c1nnnn1CCc1ccccc1)N1CCN(C(=O)c2ccco2)CC1 (centres undefined),-35.6%,?,?,6.0%,3.8%,-5.0%,-3.7%,28.6%
COc1ccccc1N1CCN(C(=O)C2c3ccccc3Oc3ccccc32)CC1,-69.1%,?,?,-3.7%,-6.2%,?,-15.1%,0.0%
Cn1c(S(=O)(=O)c2ccc([N+](=O)[O-])cc2)nc(Br)c1Br,-2.7%,-0.7%,.,-5.7%,.,?,-0.2%,-35.9%
CCOC(=O)N1C(=O)[C@@](CC)(c2ccccc2)N1C(=O)OCC,-5.3%,.,.,6.7%,.,.,-4.1%,35.5µM*

# An excerpt from the list above:
SMILES,NS1 function inh,Lassa entry inh,Cruzain inh noDet,RE007 growth inh,Cruzain Triton,Marburg entry inh,SARS PLpro yeast,StopGo reporter
CC(C)CC(c1nnnn1CCc1ccccc1)N1CCN(C(=O)c2ccco2)CC1 (centres undefined),-35.6%,?,?,6.0%,3.8%,-5.0%,-3.7%,28.6%
COc1ccccc1N1CCN(C(=O)C2c3ccccc3Oc3ccccc32)CC1,-69.1%,?,?,-3.7%,-6.2%,?,-15.1%,0.0%

# Further structures
SMILES,NS1 function inh,Lassa entry inh,Cruzain inh noDet,RE007 growth inh,Cruzain Triton,Marburg entry inh,SARS PLpro yeast,StopGo reporter
Cc1ccc(C(C)C)c(OCCNCc2ccccc2)c1,-20.9%,.,.,-3.6%,.,.,0.0%,?
COc1ccc(CCNC(=O)CCc2c(C)nc3cc(-c4cccc(F)c4)nn3c2C)cc1OC,.,21.8%[46.1 µM],?,.,-8.0%,3.8%[46.1 µM],.,-14.4%
Cc1ccc(N)c(C(O)(C(F)(F)F)C(F)(F)F)c1,3.8%,.,4.2%,1.6%,-1.4%,5.6%,-6.4%,-19.2%
O=C(c1ccccc1N1CCOCC1)N1CCCC(Nc2ccc(F)cc2)C1 (centres undefined),-1.5%,.,.,10.7%,.,.,11.7%,-14.7%
CCOC(=O)c1nnn2c3ccccc3c(=O)n(C)c12,-0.1%,12.7%,.,-1.6%,.,?,0.1%,4.1%
O=S1(=O)N=C2CCCCCN2C(c2ccc(F)cc2)N1 (centres undefined),-0.3%,.,.,-4.2%,.,.,0.0%,3.3%

# Part of the list above with just Lassa entry inh, StopGo reporter and RE007 growth inh.
Compound | Lassa entry inh | StopGo reporter | RE007 growth inh
Cc1nc2ccccc2n1CSc1ccccc1 | 20.1% | -27.4% | -3.7%
N=c1sccn1CC(=O)Nc1ccccc1Cc1ccccc1 | 18.5% | -8.4% | 1.7%
Cc1ccc(S(=O)(=O)N(Cc2cc3cc4c(cc3[nH]c2=O)OCCO4)CC2CCCO2)cc1 (centres undefined) | -23.1% | 18.3% | -5.0%
CCOc1ccccc1NC(=O)CCNC(=O)c1ccc(Cl)cc1 | -2.5% | -2.4% | 9.7%

# Bioassay records from PubChem.
